# BJeLR lethal: kills HRASV12-expressing BJeLR cells. inhibition, % (no concentration beside the values). actives 0.17% (n = 300,000). BJeLR (HRASV12) viability, CellTiter-Glo ATP luminescence, 48 h; reference of the scale not given here;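 active = replicate mean above 50%; inconclusive = above 50% but judged a plate artefact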;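 also: 50 nL library stock added to about 25 µL; numbers are from one replicate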
# PrP UTR inh: suppresses PrP 5' UTR mRNA reporter expression | cell-based PrP 5' UTR mRNA reporter, plate reader | inhibition, % (no concentration beside the values) | actives 0.35% (n = 340,000);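 active = every replicate at 50% or more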;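 also: 0 = median of the neutral control wells; tested in H4 reporter cells; numbers are from one replicate; inactives centre near -14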
# Bead autofluor: counter-screen for toxin protease inhibitors: compound fluorescence; fluorescence intensity (no concentration beside the values); actives 3.1% (n = 360,000); compound autofluorescence counterscreen, microsphere flow cytometry; stronger effect = higher value;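 active = at least 3 SD above the mean of all compounds, about 16000 in these data; inconclusive = too few beads counted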;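 also: 100 nL of 1 mM stock went into each well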
# Sa RN4220 lethal: kills Staphylococcus aureus RN4220; actives 0.33% (n = 330,000); AID 1259311; inhibition, % (no concentration beside the values); S. aureus RN4220 growth, OD600, 16 h;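 active = z-score of -3 or lower and OD600 up to 0.18 on both plates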;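 also: plate controls were untreated cells for no effect and reference antibiotic for full effect; stock transfer was 100 nL into about 80 µL; one replicate is shown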
# Sa ugtP lethal: growth inhibition of S. aureus ugtP deletion strain; S. aureus RN4220 ugtP deletion, OD600 growth, 16 h; some inactives read as strong as hits; growth inhibition, % (concentration not given with the values); actives 0.54% (n = 330,000);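 active = z-score under -3 and OD600 up to 0.15 on both plates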;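 also: plate controls were untreated wells for no effect and antibiotic for full effect; wells of about 80 µL received 100 nL stock; the first replicate is given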
# Mtb hypoxia inh: reduces hypoxia-regulated biosensor signal in M. tuberculosis; M. tuberculosis hypoxia-regulated fluorescent reporter, fluorescence; fluorescence inhibition, % (test concentration not listed); actives 0.1% (n = 300,000); AID 1159583;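 active = 35 to 45% if threefold the growth effect, above 45% if 1.5-fold the growth effect; inactive = the rest, general growth blockers included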;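 also: wells of about 50 µL received 100 nL stock; 0% = vehicle wells and 100% = reference inhibitor wells; whole bacteria with a GFP reporter of the hypoxia response; strong numbers were not always called active; many hits fall short of the cut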
# Mtb hypoxia inh growth: recorded beside Mtb hypoxia inh, whose call it bears; growth inhibition, %; measured here: M. tuberculosis growth (absorbance);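 0% = vehicle and 100% = reference antibiotic; read after six days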
# * hit, by the source's call; ? = inconclusive; nt = not tested or not shown.
SMILES,BJeLR lethal,PrP UTR inh,Bead autofluor,Sa RN4220 lethal,Sa ugtP lethal,Mtb hypoxia inh,Mtb hypoxia inh growth
CC(NC(=O)COC(=O)c1ccc(Cl)cc1O)c1ccc(F)cc1 (stereo unspecified),1.0,-8.3,4699,-1.4,7.6,17.3,4.8
COc1ccc(C(=O)C2CCCN(C(=O)/C=C/c3ccccn3)C2)c(C)c1 (stereo unspecified),-2.0,-20.3,2565,4.8,7.9,1.3,4.1
COc1cc(NC(=O)Nc2cc(C)on2)cc(OC)c1OC,-8.3,-20.3,5298,0.5,11.2,0.3,7.1
COc1ccc(CN2CCCC(C(=O)c3ccc(Cl)cc3)C2)c(O)c1 (stereo unspecified),-13.7,0.1,3167,2.0,7.6,1.6,6.5
CC(=O)Nc1ccc(NC(=O)c2ccc(Cl)c(S(=O)(=O)N3CCc4ccccc43)c2)cc1,nt,-11.3,?,8.3,-0.8,8.9,1.1
O=C1NC(=S)N/C1=C/c1cc([N+](=O)[O-])ccc1N1CCOCC1,2.5,-30.3,4905,3.8,5.2,4.5,1.6
CCOC(=O)C1CCN(S(=O)(=O)c2ccc3oc(=O)ccc3c2)CC1,3.7,-8.1,3095,4.3,10.1,2.1,-1.8
CCc1ccccc1NC(=O)c1nnn(CC(=O)Nc2cccc(C)c2)c1N,-5.5,-4.6,3377,-3.9,6.2,nt,nt
Brc1ccc2nc(N3CCN(c4ccccc4)CC3)sc2c1,0.5,-26.0,4242,0.5,6.0,7.3,12.0
COc1ccccc1C(=O)N/C(=C\c1ccc(Br)cc1)C(=O)NCCCO,7.1,-5.9,4371,7.2,3.1,3.9,-6.4
Cc1oc2ccc(O)cc2c1C(=O)c1ccccc1,7.3,-31.3,3623,2.4,0.3,4.0,2.0
C=CCOC(=O)C1=C(C)N=C2SCCC(=O)N2C1c1ccc(OC(=O)c2ccco2)cc1 (stereo unspecified),1.4,-24.8,23769*,6.7,-2.8,15.0,2.8

# The list goes on, starting with the last 5 of the part before.
SMILES,BJeLR lethal,PrP UTR inh,Bead autofluor,Sa RN4220 lethal,Sa ugtP lethal,Mtb hypoxia inh,Mtb hypoxia inh growth
CCc1ccccc1NC(=O)c1nnn(CC(=O)Nc2cccc(C)c2)c1N,-5.5,-4.6,3377,-3.9,6.2,nt,nt
Brc1ccc2nc(N3CCN(c4ccccc4)CC3)sc2c1,0.5,-26.0,4242,0.5,6.0,7.3,12.0
COc1ccccc1C(=O)N/C(=C\c1ccc(Br)cc1)C(=O)NCCCO,7.1,-5.9,4371,7.2,3.1,3.9,-6.4
Cc1oc2ccc(O)cc2c1C(=O)c1ccccc1,7.3,-31.3,3623,2.4,0.3,4.0,2.0
C=CCOC(=O)C1=C(C)N=C2SCCC(=O)N2C1c1ccc(OC(=O)c2ccco2)cc1 (stereo unspecified),1.4,-24.8,23769*,6.7,-2.8,15.0,2.8
NC(=O)NC(Cc1ccccc1)C(=O)N1CCN(S(=O)(=O)c2ccc(Cl)cc2)CC1 (stereo unspecified),nt,-10.9,3904,1.2,-7.5,14.1,8.0
CCC1(C)Cc2ccccc2-c2nc3n(c(=O)c21)CC(C(=O)O)S3 (stereo unspecified),9.8,-2.4,4389,2.0,1.8,nt,nt
CC1CCN(CC(=O)Nc2cccc([N+](=O)[O-])c2)CC1,1.4,-29.8,9994,2.7,-1.9,13.2,5.3
CC(=O)N(C1=C(N)C(=O)c2ccccc2C1=O)c1ccccc1,5.2,-13.6,3584,38.0,3.9,6.1,2.6
CC(=O)Nc1ccc2c(c1)C(=O)c1ccc(Cl)cc1-2,nt,-7.4,3665,-0.9,3.5,1.1,6.6
COC(=O)c1cc(C(=O)Nc2ccc(C)cn2)cc([N+](=O)[O-])c1,-11.3,10.7,22666*,-3.6,-11.1,-17.8,-1.1
Cc1cc(Cl)ccc1OC(C)C(=O)Nc1ccc(S(=O)(=O)N2CCOCC2)cc1 (stereo unspecified),5.5,-18.6,6000,-4.0,-11.2,-5.2,4.9
COc1ccc(CCNC(=O)CCc2nnc(Cc3ccc4c(c3)OCO4)o2)c(OC)c1,-5.2,-11.5,6855,4.1,11.2,0.0,0.5
COCCCNC(=O)c1cn(CC(C)C)c(=O)c2c1c1ccccc1n2C,-0.3,2.4,?,1.3,-2.8,-4.1,2.6
Cc1ccc(O)c(CP(=O)(c2ccccc2)c2ccccc2)c1,7.4,-11.1,10024,7.5,6.7,5.7,1.5
Cc1cnc(CNC(=O)C2CCC(=O)N(CCc3ccc(Cl)cc3)C2)cn1 (stereo unspecified),-10.0,-2.7,4038,-0.3,2.6,-8.8,1.5
COc1ccc(Nc2c([N+](=O)[O-])ccc3c2=NC2(CCCCC2)N=3)cc1,-5.5,-10.2,3704,1.4,7.2,7.6,10.7
CC(C)OCCCN1CN(S(=O)(=O)c2cccc(Cl)c2)c2nc3ccccc3nc21,3.6,-30.6,3372,-0.8,-11.7,-0.7,2.6
CCC(=O)c1ccc(OCC(O)CNC(C)c2ccccc2)cc1 (stereo unspecified),3.6,4.0,1926,1.8,8.9,8.4,13.1
O=C(NCc1ccco1)NCC(F)(F)F,7.4,-7.1,4975,2.3,3.0,nt,nt
Cc1cccc(OCCNc2ccc([N+](=O)[O-])cn2)c1,2.5,-36.6,4469,0.0,4.0,4.2,9.0
COc1ccc(C)cc1NC(=O)C1CCCN(S(=O)(=O)c2ccc3c(c2)CCCN3C(C)=O)C1 (stereo unspecified),2.1,-11.6,5630,0.9,3.0,-5.2,-6.4
O=C(NNC(=O)c1cccc2ccccc12)c1cccc(F)c1,nt,-22.5,3291,19.3,4.2,12.1,7.0
CC(=O)c1cccc(N(C(=O)CNC(=O)c2ccco2)C(C(=O)NCC2CCCO2)c2ccccc2)c1 (stereo unspecified),1.7,-14.8,5990,1.1,14.2,7.8,2.0
Cc1cc(C)n2nc(C(=O)OCC(=O)NC(=O)c3ccccc3)nc2n1,-7.6,-17.9,5643,4.3,5.8,6.0,3.4
Cc1c(N2C(=O)c3ccc4c5c(ccc(c35)C2=O)CC4)c(=O)n(-c2ccccc2)n1C,11.4,-6.2,3106,-8.6,-10.6,12.9,5.2
O=C(CSc1ncn[nH]1)Nc1nc(-c2ccccc2)ns1,-12.2,-18.5,8007,-3.7,-8.9,-5.9,-7.4
Nn1c(SCC(=O)N2CCOCC2)nnc1-c1cccnc1,nt,-11.0,nt,0.8,-0.2,6.4,-0.7
CCC(=O)c1ccc(OCC(O)CN2CC(C)OC(C)C2)cc1 (stereo unspecified),-7.2,-4.3,4269,2.3,-1.8,nt,nt

# Of the compounds above, 2 have bromine.
SMILES,BJeLR lethal,PrP UTR inh,Bead autofluor,Sa RN4220 lethal,Sa ugtP lethal,Mtb hypoxia inh,Mtb hypoxia inh growth
Brc1ccc2nc(N3CCN(c4ccccc4)CC3)sc2c1,0.5,-26.0,4242,0.5,6.0,7.3,12.0
COc1ccccc1C(=O)N/C(=C\c1ccc(Br)cc1)C(=O)NCCCO,7.1,-5.9,4371,7.2,3.1,3.9,-6.4

# Remaining list, next part
SMILES,BJeLR lethal,PrP UTR inh,Bead autofluor,Sa RN4220 lethal,Sa ugtP lethal,Mtb hypoxia inh,Mtb hypoxia inh growth
COc1ccc(NC(=O)N(Cc2cc3cc(C)ccc3[nH]c2=O)CC2CCCO2)cc1 (stereo unspecified),-14.3,-13.2,4969,-0.1,-0.2,5.0,-3.5
CC1(NC(=O)NCc2ccccc2)CCS(=O)(=O)C1 (stereo unspecified),-1.4,-25.6,2114,6.3,-3.7,2.5,6.1
CCn1ncc(C2=NOC(C(=O)Nc3cnn(C45CC6CC(CC(C6)C4)C5)c3)C2)c1C (stereo unspecified),-2.9,-4.5,21886*,-1.4,2.0,-8.5,6.4
COC(C[C@H](O)[C@H](C)[C@@H](O)COCc1ccccc1)OC,12.6,-9.3,2817,nt,nt,nt,nt
NC(=O)COC(=O)CN1C(=O)C2CCCCC2C1=O (stereo unspecified),3.7,-2.6,9691,0.5,4.2,9.9,-2.6
COc1ccc(/C(N)=N/OC(=O)CSc2ccccc2)cc1OC,1.7,-12.5,3341,8.6,1.2,nt,nt
O=C(c1cc(-c2ccc(Cl)cc2)n[nH]1)N1CCc2ccccc2C1,-7.3,-9.1,5047,nt,nt,nt,nt
Cc1ccc(C(=O)CSc2nc3ccccc3o2)cc1,-0.5,-40.3,9413,15.5,-21.1,4.2,11.9
CC1CCc2nc3ccccc3c(C(=O)OCC(=O)N(C)C3CCS(=O)(=O)C3)c2C1 (stereo unspecified),6.4,-93.1,3740,5.7,10.9,10.1,16.4
CCN(Cc1ccccc1)C(=O)C1CCN(c2ncnc3c2nc2n3CCCCC2)CC1,5.5,-6.7,5891,-2.7,5.8,15.0,2.0
O=C(Cc1ccccc1)NCC(=O)OCC(=O)c1cccc([N+](=O)[O-])c1,5.1,-20.2,2060,3.4,6.4,14.4,1.9
CCOCCCNC(=O)/C(C#N)=C/c1cc(OC)c(O)c([N+](=O)[O-])c1,-2.5,-30.1,4323,8.3,13.1,9.9,3.0
CCCN(C(=O)c1ccc(-n2cncn2)c([N+](=O)[O-])c1)C1CCS(=O)(=O)C1 (stereo unspecified),nt,-6.9,6441,3.9,10.8,6.3,-5.5
O=C(COc1ccccc1)Nc1c2c(nn1-c1ccccc1)CS(=O)(=O)C2,2.7,-10.0,7372,2.0,3.4,5.8,8.3
CCCN1CCC(NCC(C)c2ccccc2)CC1 (stereo unspecified),-0.2,-33.7,4625,3.0,5.6,4.7,-2.5
Cc1ccc(CNC(=O)c2c(-c3ccccc3Cl)noc2C)cc1,0.6,13.1,3520,2.1,3.8,8.5,-1.8
CCOc1ccccc1C1NC(=O)NC(C)=C1C(=O)OC1CCCCC1 (stereo unspecified),1.4,-15.1,9307,9.7,-13.5,1.3,-7.2
Cc1nc(NC(=O)c2ccc3c(c2)OCO3)ccc1Br,6.8,-73.9,4043,17.4,9.2,20.0,8.5
COc1ccc(C)cc1S(=O)(=O)N(C)CC(=O)N1CCCCC1,5.6,-16.5,9201,8.1,1.7,5.4,2.0
COc1cc(/C=C/C(=O)OCC(=O)NCCc2ccccc2)ccc1OC(F)F,0.2,-5.4,7561,-2.1,22.0,3.3,8.3
Cc1nc2c(C#N)c(C)[nH]n2c(=O)c1Cc1ccccc1,-9.1,-34.1,10576,2.8,2.0,6.1,2.7
CCOc1ccc2cc(C#N)c(SCC(=O)N3CCC(C)CC3)nc2c1,-5.1,-18.1,23801*,5.0,-20.5,2.4,-4.1
O=c1c(Cc2ccccc2O)c(O)nc2n1CCCS2,3.7,-18.3,5494,-7.0,-2.0,8.1,9.4
CC(=O)OC(C)CS(=O)(=O)c1ccccc1 (stereo unspecified),4.2,-18.0,3323,7.3,12.3,-2.6,3.7
Cc1nc(SCC(=O)N2CC(=O)Nc3ccccc32)nc(C)c1C,-2.7,-17.6,4728,2.5,10.2,2.5,-12.8
O=C(COc1ccc(S(=O)(=O)NCc2ccccc2)cc1Cl)N1CCOCC1,-16.5,-22.5,23739*,9.3,-3.2,3.6,-1.4
CCn1cc(/C=C(\NC(=O)c2cc(OC)c(OC)c(OC)c2)C(=O)N2CCN(C)CC2)c2ccccc21,-7.5,-1.7,6031,-1.8,1.1,-1.1,5.2
COc1cccc(COC(=O)c2ccc3c(=O)n4c(nc3c2)CCC4)c1OC,-3.8,8.0,5829,2.2,-8.9,13.1,3.9
CCC(=O)N1CCc2cc(Br)cc(S(=O)(=O)NCCN3CCCCC3C)c21 (stereo unspecified),-8.7,0.5,9612,2.5,-0.3,5.7,4.4
CCN(CC)S(=O)(=O)c1ccc(NN=C2CCN(C(C)C)CC2)c([N+](=O)[O-])c1,6.2,-6.1,4614,-3.6,-9.9,-11.8,-13.7
CCOC(=O)Cc1csc(NN=Cc2cccc([N+](=O)[O-])c2)n1,nt,nt,nt,4.5,2.1,3.8,-6.8
CCN1C(=O)c2cccc3c(NC(=O)c4cccc(N5C(=O)CCC5=O)c4)ccc1c23,-4.8,0.0,11275,6.9,2.0,12.4,8.8
CCOC(=O)N1CCN(C(=O)c2ccc3c(=O)n(CCc4ccccc4)c(=S)[nH]c3c2)CC1,-1.9,-11.6,3846,-2.2,-6.0,nt,nt
N#Cc1cc(O)c(-n2nnc3ccccc32)cc1C#N,0.4,-1.9,2594,9.6,15.8,16.5,1.0

# Screens: PubChem BioAssay, several laboratories
